Rango-impB inh: Rango-importin beta binding inhibition; Q14974; Rango CFP/YFP FRET sensor + importin beta, 45 min; Potency, µM (series often up to 92.2 µM), inactives show at the highest dose inhibition of complex formation; actives 0.031% (n = 340,000); AID 540263; active = rising FRET ratio curve, often small or poorly fitted; inconclusive = mostly compound fluorescence or quenching in the first reads; inactive = flat curves in all reads;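 note: potency is the fitted concentration of half-maximal effect; 0% = DMSO wells and 100% = buffer wells lacking importin beta; nearly all actives have a fitted effect of over 15% in size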
Target sequence (Q14974 whole entry, looked up): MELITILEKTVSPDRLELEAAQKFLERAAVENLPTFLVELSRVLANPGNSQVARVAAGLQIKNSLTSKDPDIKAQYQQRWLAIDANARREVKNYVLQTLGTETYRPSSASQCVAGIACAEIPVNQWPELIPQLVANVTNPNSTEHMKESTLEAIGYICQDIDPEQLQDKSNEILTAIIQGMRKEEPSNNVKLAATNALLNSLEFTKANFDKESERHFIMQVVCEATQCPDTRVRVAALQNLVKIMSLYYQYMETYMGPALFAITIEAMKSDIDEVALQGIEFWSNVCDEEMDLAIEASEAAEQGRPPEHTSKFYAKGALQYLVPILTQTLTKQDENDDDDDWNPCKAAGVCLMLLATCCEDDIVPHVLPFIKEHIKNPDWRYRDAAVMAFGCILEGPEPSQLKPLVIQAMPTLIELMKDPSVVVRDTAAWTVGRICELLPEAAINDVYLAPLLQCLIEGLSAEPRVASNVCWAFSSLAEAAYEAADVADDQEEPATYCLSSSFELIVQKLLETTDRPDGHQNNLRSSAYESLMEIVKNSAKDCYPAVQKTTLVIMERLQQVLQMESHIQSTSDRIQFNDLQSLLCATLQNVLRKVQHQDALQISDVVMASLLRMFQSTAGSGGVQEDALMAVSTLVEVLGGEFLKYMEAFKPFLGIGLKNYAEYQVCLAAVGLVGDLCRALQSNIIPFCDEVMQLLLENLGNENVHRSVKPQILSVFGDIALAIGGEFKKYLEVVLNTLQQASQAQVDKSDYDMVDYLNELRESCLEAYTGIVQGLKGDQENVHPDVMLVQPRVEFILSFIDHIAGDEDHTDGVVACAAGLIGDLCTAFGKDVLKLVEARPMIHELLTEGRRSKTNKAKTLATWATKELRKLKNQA
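FRET biosensor Rango (snurportin 1 IBB between N-terminal EYFP and C-terminal Cerulean), 50 nM in PBS/1 mM DTT/0.02% Tween-20/0.1% BSA, preincubated 5 min RT with compound; 0.125 microM importin beta added, 45 min RT, CFP/YFP FRET ratio read.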
miR-21 reporter: miR-21 reporter, rising signal; HeLa miR-21 FLuc reporter, luciferase, 48 h; Potency, µM (series often up to 38.3 µM), inactives show at the top dose reporter change, positive = more light; 340,000 tested, under 10 active; active = well fitted rising curve with a large enough effect; inconclusive = small, poorly fitted or top-dose-only effect; inactive = no such curve, though single readings can be large or run the other way;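 note: % of control where 0% means no effect; miR-21 action dims this reporter so a rising signal means less miR-21 action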
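Using DMEM plus 10% FBS, HeLa miR-21-FLuc cells are incubated with test compounds (final up to about 40uM) for 48 hours; firefly luciferase signal is then imaged following reagent-mediated lysis.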
GLA inh pH 4.5: alpha-galactosidase A (human) inhibition, pH 4.5. purified enzyme, 4-MU-alpha-Gal fluorescence, pH 4.5. activity change, negative = inhibition, % at 105 µM. 230,000 tested, under 10 active. AID 1467; inconclusive = small, poorly fitted or top-dose-only inhibition, or a rising curve; inactive = flat fitted curve, though single readings scatter; no compound was filed as active;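 note: 0% = full activity with enzyme and -100% = basal without enzyme; dose as in the result columns while the protocol names 77 µM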
Rango release inh: prevents RanGTP from dissociating the Rango-importin beta complex | O95149+P62826 | Potency, µM (series often up to 46.1 µM), without a hit: at the highest dose activity change, negative = inhibition | Biochemical FRET Rango-importin beta, RanGTP-induced dissociation | actives 0.071% (n = 340,000); active means falling FRET ratio curve, often poorly fitted, with flat reads before Ran was added; inconclusive means other falling curves, or compound fluorescence or quenching; inactive means flat or rising ratio curve;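 note: potency is the fitted concentration of half-maximal effect; % of control where 0% means no effect; nearly all actives have a fitted effect of over 45% in size; -100% = wells without RanGTP and RCC1; the record marks most hits as doubtful in a second field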
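Two FRET readings bracket the reaction: one 5 min after compound meets Rango–importin beta, another 45 min after RanGTP-RCC1 (0.6 uM Ran, 0.2 uM RCC1, 2 mM GTP) is added. Only the second defines inhibition.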
An asterisk follows results filed as active; u = inconclusive; x = not tested or not shown; & = joins results of further samples.

SMILES | Rango-impB inh | miR-21 reporter | GLA inh pH 4.5 | Rango release inh
Cc1ccc(/C=N/NC(=O)Cn2nc(C)c(Br)c2C)o1 | 0.0% | -2.2% | -2.3 | 0.9%
CN(C)c1ccc(CNC(=O)CCS(=O)(=O)c2ccc3c(c2)oc(=O)n3C)cc1 | -0.8% | 0.8%&-0.5% | x | 11.5%
[O-]/C(=C(\C(=S)Nc1ccc(SC(F)F)cc1)[n+]1ccccc1)c1ccc(Cl)cc1Cl | 0.0% | 8.1% | -2.4 | 0.8%
COc1ccc(C2=NOC(Cn3nc(-c4ccccc4)cc3C(=O)NCc3cccc(C(F)(F)F)c3)C2)cc1 (stereo unspecified) | -0.5% | x | x | 0.5%
CC(=O)Nc1cccc(OCC(=O)NC(C)c2ccc3ccccc3c2)c1 (stereo unspecified) | u | -3.4% | x | 14.8%
COc1ccc(C(=O)NC2CCSc3ccccc32)cc1 (stereo unspecified) | 1.1% | -24.9% | x | 15.6%
Cc1oc(-c2ccccc2)nc1CS(=O)CC(=O)NC1CCCC1 (stereo unspecified) | -2.5% | -0.9% | x | -27.8%
CC1CCCCC1NC(=O)CSc1nnc(COc2ccccc2Cl)o1 (stereo unspecified) | 0.0% | -18.7% | 1.9 | -5.2%
COc1ccc(N2CCN(CCCNC(=O)CN3CCN(Cc4ccccc4C)C3=O)CC2)cc1 | 1.4% | 15.5% | -2.8 | -9.8%
CN(C)S(=O)(=O)c1ccc(Cl)c(C(=O)NNC(=O)Cc2nc3ccccc3n2C)c1 | 1.0% | x | x | -7.2%
CCOC(=O)C1CCCN(CCC(=O)Nc2cc(C)cc(C)c2)C1 (stereo unspecified) | 0.9% | 1.1% | 7.4 | 4.0%
COc1ccccc1C(OC(=O)c1ccco1)C(=O)NC(C)(C)C (stereo unspecified) | 2.3% | 2.8% | 10.4 | 2.4%
COc1ccc(NC(=O)n2ncc3c(C)cccc32)cc1 | u | -38.8% | x | -10.0%
CCO[C@@H]1OC(C(=O)N2CCOCC2)=C[C@H](c2cn(C(C)=O)c3ccccc23)[C@H]1CCCO | 0.2% | -12.5% | 8.0 | 17.1%
CCOC(=O)c1ccc(NC(=O)c2sc3nc(N4CCOCC4)c4c(c3c2N)CCCC4)cc1 | 5.2% | 0.4% | x | -0.3%
CC(C)COc1cccc(C(=O)N(CC(=O)Nc2ccccc2C(F)(F)F)Cc2ccco2)c1 | 0.1% | x | x | 0.1%
CN(C)c1nc(NS(=O)(=O)c2ccc(Cl)cc2)nc(N(C)C)n1 | 9.6% | 2.8% | 0.3 | -7.9%
Cc1ccc(NC(=O)N2CCN(c3ncccc3C(F)(F)F)CC2)cc1 | -2.5% | -21.2% | -3.9 | 9.6%
O=C(Cn1c(=O)n(CC2CCCO2)c(=O)c2ccccc21)c1ccc(Cl)c(Cl)c1 (stereo unspecified) | 2.6% | 0.1% | 3.5 | 27.3%
O=C(/C(=C/O)N=Nc1ccccc1)c1ccc(Cl)cc1 | -1.4% | 19.1% | -8.6 | -12.5%

Gathered by group, the compounds so far containing a CF3 group (3)
SMILES | Rango-impB inh | miR-21 reporter | GLA inh pH 4.5 | Rango release inh
COc1ccc(C2=NOC(Cn3nc(-c4ccccc4)cc3C(=O)NCc3cccc(C(F)(F)F)c3)C2)cc1 (stereo unspecified) | -0.5% | x | x | 0.5%
CC(C)COc1cccc(C(=O)N(CC(=O)Nc2ccccc2C(F)(F)F)Cc2ccco2)c1 | 0.1% | x | x | 0.1%
Cc1ccc(NC(=O)N2CCN(c3ncccc3C(F)(F)F)CC2)cc1 | -2.5% | -21.2% | -3.9 | 9.6%

(listing goes on)
SMILES | Rango-impB inh | miR-21 reporter | GLA inh pH 4.5 | Rango release inh
Cc1ccc2cc(CN(CCO)Cc3nnnn3Cc3ccc(F)cc3)c(=O)[nH]c2c1 | 0.6% | 2.1% | -1.5 | -15.1%
CCCN(CCC)C(=O)Cn1c(=O)n(CCC(=O)NCCc2ccccc2)c(=O)c2ccccc21 | 2.6% | -1.9% | -1.8 | 6.0%
Cc1ccc(CNC(=O)CSc2nc3c(sc4ccccc43)c(=O)n2CCCN2CCCC2)cc1 | -2.3% | -14.1% | 4.4 | -11.8%
CC(C)(C)[C@H]1C=C(C(=O)N2CCOCC2)O[C@@H](OCc2ccc(CO)cc2)C1 | -4.3% | 6.9% | 0.8 | 1.5%
Cc1ccc(C2/C(=C(\O)c3ccc4c(c3)OCCO4)C(=O)C(=O)N2CC2CCCO2)cc1 (stereo unspecified) | 2.5% | -3.9% | x | 1.5%
CCOC(=O)N1CCN(C(=O)COC(=O)c2ccccc2NCCO)CC1 | -0.7% | x | x | 15.6%
Cn1cc(CCCC(=O)NCc2ccc(F)cc2)c2ccccc21 | -2.4% | 9.7%&-2.1% | x | -9.9%
COc1cccc(NC(=S)NC2CC3CCCC(C2)N3CC(C)C)c1 (stereo unspecified) | 2.1% | 4.7% | -4.5 | -6.7%
COc1ccc(C2CC(C(F)(F)F)n3ncc(C(=O)Nc4cccc(O)c4)c3N2)cc1OC (stereo unspecified) | -1.4% | -8.6% | -3.6 | 0.6%
CN(CC(=O)Nc1cccnc1)S(=O)(=O)c1cc(Cl)ccc1Cl | -1.0% | -12.1% | -11.1 | -3.5%
COc1cccc(/C=N/n2c(-c3ccco3)nc3ccccc3c2=O)c1 | 3.7% | -39.2% | -2.0 | 5.7%
CCN(CC)S(=O)(=O)c1cccc(C(=O)Oc2cccc(NC(=O)c3cccs3)c2)c1 | -1.4% | -26.9% | -16.5 | -2.6%
Cc1cc(Br)ccc1NC(=O)CN(C)C(=O)CSCc1ccccc1 | 1.3% | x | x | 11.5%
CC(=O)N(Cc1cccnc1)Cc1cc2ccc(C)cc2[nH]c1=O | -2.1% | 0.3% | -0.6 | 7.1%
Cc1ccc(C(C(=O)NC2CCCCC2)N(C(=O)Cc2c[nH]c3ccccc23)c2ccccc2)o1 (stereo unspecified) | -3.5% | 14.7% | 10.7 | -7.4%
O=[n+]1cc(-c2ccc(Cl)cc2)n([O-])c2c1CCC2 | -2.8% | -0.5% | -1.9 | -2.8%
Cc1ccc2nc3c(c(Nc4ccc(O)cc4)c2c1)CCC3 | -2.2% | 2.2% | x | 26.0%
COc1ccc(Br)cc1S(=O)(=O)NCCc1cccs1 | 7.6% | x | x | -6.4%
CCCC1(c2ccccc2)NC(=O)N(CC(=O)Nc2sc(-c3ccccc3)cc2C(=O)OCC)C1=O (stereo unspecified) | -1.5% | -12.0% | 11.2 | 4.6%
CN(Cc1cccc2cnccc12)C(=O)c1cc(COc2ccc(F)cc2F)on1 | 0.3% | 18.0% | x | -3.3%
O=C(COC(=O)c1nc(Cl)ccc1Cl)c1ccc(Cl)s1 | -2.0% | -0.6% | 5.1 | -9.9%
NC(=O)NC(CC(=O)NCCc1ccccn1)c1ccccc1Cl (stereo unspecified) | -1.9% | 2.1% | x | -7.2%
COc1ccc(Oc2ccc(N/C=C3/CCCC3=O)cc2)cc1 | u | -25.4% | 6.4 | 4.8%
O=S(=O)(NN1CCOCC1)c1ccc(Br)s1 | 7.8% | -0.6% | x | 2.1%
COc1ccc(-n2c(SCC(=O)Nc3cc(C)on3)nc3ccccc3c2=O)cc1Cl | -1.5% | -0.6% | 15.5 | 16.1%
Cc1ccc(CSc2nn3c(=O)c(C)nnc3s2)cc1 | -1.3% | 0.2% | -1.5 | -0.3%
Cc1cccc(-n2nnnc2SCC(=O)N(CC(C)C)c2c(N)n(CC(C)C)c(=O)[nH]c2=O)c1 | -4.7% | -2.9% | -4.2 | 11.9%
Cc1c(OCC(=O)NCCCN2CCOCC2)ccc2c3c(c(=O)oc12)CCC3 | 0.5% | -4.4% | x | 20.6%
Cc1no[n+]([O-])c1COc1ccc(/C=C(\C#N)C(N)=O)cc1 | -2.4% | 4.2% | -4.1 | 1.5%
COc1ccc(C(C(=O)NC2CCCC2)N(Cc2cccnc2)C(=O)Cc2cccs2)c(OC)c1 (stereo unspecified) | -1.0% | -1.1% | x | -2.2%
O=C(C[C@H]1C/C=C\C[C@@H](Cc2ccc(F)cc2)C(=O)O[C@@H](c2ccccc2)CNC1=O)NCCO | -2.1% | x | x | -13.2%
COc1cccc(CN(Cc2ccco2)S(=O)(=O)c2ccc(S(=O)(=O)NCc3ccccc3)cc2)c1OC | 1.6% | 22.2% | -8.5 | 6.4%
Cc1ccc(CNC(=O)c2ccc[nH]2)cc1 | -0.6% | -1.5% | 11.7 | 2.4%
COc1ccc(Cc2nc(-c3cccc(C)c3)no2)cc1 | -0.9% | -43.9% | 5.7 | u
COc1cc(OC)c(OC)cc1/C=N/n1c(-c2n[nH]c3c2CCC3)n[nH]c1=S | 2.5% | 6.6% | -4.7 | 11.4%
COc1ccc(C2C(C(C)=O)=C(O)C(=O)N2c2ccc(O)cc2)cc1 (stereo unspecified) | 1.8% | -1.3% | x | -9.8%
COc1cccc(N2CCN(C(=O)c3cc4c(s3)CCCCC4)CC2)c1 | -0.9% | x | x | -1.6%
Cc1[nH]c2ccccc2c1C(=O)COC(=O)CCS(=O)(=O)c1ccccc1Cl | -3.8% | -9.3% | -9.9 | -13.2%
COc1ccc(NC(=O)Nc2nnc(N3CCC(C)CC3)s2)cc1OC | -1.5% | -7.0% | -10.0 | -24.2%
Fc1ccccc1NC(=S)NNc1ncc(C(F)(F)F)cc1Cl | 3.2% | 25.2% | 2.4 | 8.8%
O=S(=O)(c1cccs1)N1CN(Cc2ccco2)c2nc3ccccc3nc21 | u | -41.6% | -5.2 | -2.8%
CN(C)c1ccc(S(=O)(=O)N2CCCCC2)cc1NC(=O)C1CSC2(C)CCC(=O)N12 (stereo unspecified) | 4.4% | x | x | -7.8%
Cc1nn(-c2ccc(F)cc2)c(C)c1CN1CCN(CCc2ccccc2)C(CCO)C1 (stereo unspecified) | 0.3% | -2.0% | 6.5 | 3.3%
O=C(C1CCCC1)N1CCC(CC2CC(c3cccc(Br)c3)=NO2)(C(=O)NCC2CCCCC2)CC1 (stereo unspecified) | u | 0.1% | x | -7.0%
CCOC(=O)CCNC(=O)Nc1ccc2nc(C)n(Cc3cccc(Cl)c3)c(=O)c2c1 | -1.7% | -2.5% | -8.1 | -0.2%
NC(=O)c1c(NC(=S)Nc2ccc(F)cc2)sc2c1CCCC2 | -0.5% | -32.8% | -3.0 | -3.1%
CCCN(CC(=O)Nc1ccccc1C)C(=O)C1CC(=O)N(c2cccc(C)c2C)C1 (stereo unspecified) | 0.3% | x | x | u
O=C(NC(=S)NC1CCSC1=O)c1cccc([N+](=O)[O-])c1 (stereo unspecified) | 2.3% | 0.0% | x | 8.9%
OCCNc1ncnc2c1sc1nc(N3CCOCC3)c3c(c12)CCC3 | -2.7% | 3.2% | 3.8 | 1.9%
Cc1cccc(-n2cnc3cc(C(=O)N4CCCCC4)ccc32)c1 | 4.9% | -62.1% | -2.5 | 26.7%

Remaining list, next part
SMILES | Rango-impB inh | miR-21 reporter | GLA inh pH 4.5 | Rango release inh
O=C(CNC(=O)c1sc2ccccc2c1Cl)NCc1cccnc1 | 0.5% | -0.8% | x | 2.5%
CCCN1CCN(CCCNC(=O)C2CCN(c3nnc(-n4c(C)ccc4C)s3)CC2)CC1 | -2.2% | 0.0% | x | 1.5%
CC(C)CN1C(=O)C(=O)N(CC(=O)NCc2ccc3c(c2)OCO3)C1=O | 2.9% | -0.7% | 2.8 | -10.6%
COc1ccccc1C(=O)Nc1cc2ccccc2oc1=O | -1.6% | -13.0% | -3.3 | -11.9%
O=C1c2ccccc2S(=O)(=O)N1Cc1c(F)cccc1Cl | 3.9% | 4.5% | x | -0.2%
CCn1c(=O)c(C(=O)CN2CCN(S(=O)(=O)c3cc(C)ccc3C)CC2)c(N)n(Cc2ccccc2)c1=O | -3.0% | -5.8% | -6.9 | 13.0%
CC1CCc2c(nc3ncnn3c2N2CCN(c3ccccc3)CC2)C1 (stereo unspecified) | -0.5% | -5.9% | 11.4 | 0.3%
CC(=O)C1=C(C)N=c2s/c(=C/c3ccc4c(c3)OCO4)c(=O)n2C1c1ccc(N(C)C)cc1 (stereo unspecified) | 4.4% | x | x | 7.7%
COC(=O)C1=C(COc2ccccc2)NC(=O)NC1c1ccc(Cl)cc1 (stereo unspecified) | -0.7% | x | x | 21.1%
CCCn1cc(S(=O)(=O)c2ccccc2)c(=O)c2cc(F)c(N3CCN(C)CC3)cc21 | -4.3% | -1.2% | x | -12.7%

Bioassay records: PubChem BioAssay, National Center for Advancing Translational Sciences (NCATS)

The list is partial; count on the stated rates, not on these rows.
